PINK1 expr mod = A Quantitative High throughput Screen to Identify Chemical Modulators of PINK1 Expression | PINK1 immunofluorescence, high-content cytometry, 24 h | Potency, µM (highest dose often 76.6 µM), for the others: top-dose activation (PINK1 increase), most hits filed as activators | actives 0.2% (n = 410,000) | AID 624263, 2012; active = well fitted activation curve with a large enough effect; inconclusive = small, poorly fitted or top-dose-only effect; inactive = flat fitted curve, though single readings scatter; cell line not stated here;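 further: potency means the concentration at half of the fitted maximal effect; % of control where 0% means no effect; nearly all actives have a fitted effect of over 65% in size; a mitochondrial uncoupler was the plate control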
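PINK1 protein, normally rapidly degraded, was detected by immunofluorescence after 24 hour compound treatment of a stable cell line. Titration data (5 concentrations) came from laser-scanning cytometry, with CCCP-treated wells as controls.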
CtBP-E1A inh = qHTS Assay for Inhibitors of the CtBP/E1A Interaction | CtBP / adenovirus E1A interaction (AlphaScreen) | AlphaScreen GST-E1A/His-CtBP binding, 1536-well; active compounds read low; control for the full effect not named in the record | activity change, % (test concentration not listed) | actives 0.49% (n = 340,000) | AID 651724, 2012; in the data active means activity change below about -65%; inconclusive means about -30% to -65%; inactive means above about -30%; further: on the % scale 0 is the no-effect control and ±100 the full control effect
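GST-E1A and His-tagged CtBP (125 nM each as 5X stock) were preincubated with pin-transferred compound for 2 h at 37 °C in the dark, then glutathione donor and nickel acceptor beads were added for 1 h before AlphaScreen reading.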
TRPML1 agonist = qHTS for Agonists of the Human Mucolipin Transient Receptor Potential 1 (TRPML1); AID 624414, 2012; TRPML1-expressing cells, Ca2+ dye fluorescence, FDSS; host cell line not named in the record; reference of the full effect not given here; Mucolipin-1 (Homo sapiens), Q9GZU1; activation, % (test concentration not listed); actives 0.12% (n = 410,000); in the data active = activation above about 50%; inconclusive = about 30% to 50%; inactive = below about 30%; further: 0% is about no effect; the text of the record puts the active cut at 80%
Target sequence (Q9GZU1 whole entry, looked up): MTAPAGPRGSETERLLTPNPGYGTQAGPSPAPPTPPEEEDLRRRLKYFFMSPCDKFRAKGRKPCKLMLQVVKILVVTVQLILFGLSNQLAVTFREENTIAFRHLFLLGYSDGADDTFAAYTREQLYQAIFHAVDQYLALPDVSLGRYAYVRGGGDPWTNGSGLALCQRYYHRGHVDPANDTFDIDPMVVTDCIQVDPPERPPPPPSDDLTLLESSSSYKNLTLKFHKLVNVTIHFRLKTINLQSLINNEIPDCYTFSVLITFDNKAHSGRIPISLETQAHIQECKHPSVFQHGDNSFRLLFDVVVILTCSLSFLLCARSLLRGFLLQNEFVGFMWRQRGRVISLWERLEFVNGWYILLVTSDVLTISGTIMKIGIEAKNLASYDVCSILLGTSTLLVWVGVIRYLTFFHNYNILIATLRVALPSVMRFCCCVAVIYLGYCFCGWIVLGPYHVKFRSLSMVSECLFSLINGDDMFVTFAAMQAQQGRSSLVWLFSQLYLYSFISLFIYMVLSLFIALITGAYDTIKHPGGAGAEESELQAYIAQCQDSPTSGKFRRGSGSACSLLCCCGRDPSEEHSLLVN
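Kinetic FDSS Ca2+ read in Tet-induced TRPML1-DL cells (ABD Ca8 dye plus quencher, 45-90 min RT loading): baseline, then compound, then 110 s agonist window; EC80 agonist 54-4 at 4uM final added afterwards for a 110 s antagonist window.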
Six1-Eya2 inh = qHTS Assay for Inhibitors of the Six1/Eya2 Interaction; Homeobox protein SIX1 (Homo sapiens) + Protein phosphatase EYA2 (Homo sapiens), …; AlphaScreen GST-Six1/His-Eya2 binding, biochemical; active compounds read low; control for the full effect not named in the record; activity change, % (test concentration not listed); actives 0.56% (n = 360,000); AID 651725, 2012; in the data active = activity change below about -65%; inconclusive = about -30% to -65%; inactive = above about -30%; further: on the % scale 0 is the no-effect control and ±100 the full control effect
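AlphaScreen luminescence read after one hour at 37 °C in darkness. Pin-transferred compounds met GST-Six1 and His-Eya2 protein (5X stock 250 nM/500 nM) plus glutathione donor and Ni-chelate acceptor beads (5X, 50 ug/mL).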
D2 agonist = Beta-Arrestin HTS for Positive Allosteric Modulators of the Human D2 Dopamine Receptor: Agonists; D(2) dopamine receptor (Homo sapiens), P14416; DiscoveRx PathHunter D2 beta-arrestin, luminescence, 90 min; 100% = 57 uM dopamine signal; activation, % (test concentration not listed); actives 0.084% (n = 360,000); in the data active = activation above about 40%; inconclusive = about 15% to 40%; inactive = below about 15%; further: compound concentration not given in the record; the text of the record calls up to 30% inactive
Target sequence (P14416 whole entry, looked up): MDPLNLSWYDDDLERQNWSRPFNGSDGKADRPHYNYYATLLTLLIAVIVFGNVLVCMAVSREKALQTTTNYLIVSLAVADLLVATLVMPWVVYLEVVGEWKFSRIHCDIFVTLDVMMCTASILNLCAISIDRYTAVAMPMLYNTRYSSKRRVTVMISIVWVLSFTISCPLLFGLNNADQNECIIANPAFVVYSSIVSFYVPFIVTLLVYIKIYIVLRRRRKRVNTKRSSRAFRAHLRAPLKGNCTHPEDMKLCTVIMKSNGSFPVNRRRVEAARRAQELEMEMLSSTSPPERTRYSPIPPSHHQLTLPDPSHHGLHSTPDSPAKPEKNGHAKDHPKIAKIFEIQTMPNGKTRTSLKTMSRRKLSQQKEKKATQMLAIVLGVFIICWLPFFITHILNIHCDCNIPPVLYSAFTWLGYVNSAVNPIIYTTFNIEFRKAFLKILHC
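DiscoveRx PathHunter D2 beta-arrestin cells (2,100/well) attached overnight, then compound-stimulated 90 min at 37 C in HBSS/10 mM HEPES/0.1% Tween-20 buffer; beta-galactosidase complementation read by luminescence after 1 h at ambient temperature. Dopamine 57 uM final (EC100) as control.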
TRPML1 inh = qHTS for Inhibitors of the Human Mucolipin Transient Receptor Potential 1 (TRPML1); Mucolipin-1 (Homo sapiens), Q9GZU1; TRPML1-inducible cells, Ca2+ dye fluorescence, FDSS; active compounds read low; inhibition of EC80 agonist-evoked calcium signal; activity change, negative = inhibition, % (concentration not given with the values); actives 0.02% (n = 390,000); AID 624415, 2012; in the data active means activity change below about -50%; inconclusive means about -30% to -50%; inactive means above about -30%;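 further: stimulus is agonist 54-4 at its EC80 concentration; on the % scale 0 is the no-effect control and ±100 the full control effect; the text of the record puts the active cut at -80%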
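Tet-induced TRPML1-DL cells loaded with Ca8 no-wash calcium dye were read kinetically on FDSS. Compound addition was followed by EC80 agonist 54-4 (4 uM final); inhibition was read over 110 s.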
Starred values were filed as active, the others as inactive; ? = inconclusive; . = no result given; & = joins results of further samples; [ ] = dose if it differs, or a comment.

SMILES	PINK1 expr mod	CtBP-E1A inh	TRPML1 agonist	Six1-Eya2 inh	D2 agonist	TRPML1 inh
O=C1CCc2cc(S(=O)(=O)NCc3ccccc3Cl)cc3c2N1CC3	?	-6	0.1&0.0	6	-4.2	9&35
O=C(COc1ccc(Cl)cc1)OCc1cc(=O)n2nc(C3CCCCC3)sc2n1	-0.2%	.	0.0	.	.	-16
COc1cc(NC(=O)CSc2nnc3c(n2)[nH]c2ccc(S(=O)(=O)NC(C)C)cc23)cc(OC)c1OC	4.5%	.	1.0	-9	-0.5	-9
CC(NC(=O)c1ccc(S(C)(=O)=O)cc1)c1cccc2ccccc12 (centres undefined)	1.5%	16	-1.0	7	-3.3	2
COc1ccc(NC(=O)CCCn2c(=O)oc3ccccc32)cc1Cl	1.2%	-10	0.6	-10	-1.8	23
O=C(N/N=C/c1ccoc1)c1cc(O)cc(O)c1	4.1%	-18	0.9	?	-1.6	30
COc1cccc(NC(=O)c2cccc(N3C(=O)C4C5C=CC(C5)C4C3=O)c2)c1 (centres undefined)	2.3%	0	0.7	3	?	15
COC(=O)c1ccc(NC(=O)CSc2nnc(CNc3ccc(F)cc3)n2C)cc1	.	9	-0.7	-10	-0.6	5
Cc1ccccc1OCC(=O)Nc1ccccc1N1CCCCC1	4.5%[38.3 µM]	14	3.2	15	-4.5	6
O=C(COC(=O)C1COc2ccccc2O1)Nc1cccc(Cl)c1 (centres undefined)	1.6%	10	-0.2	4	-0.9	-1
Clc1ccc(CN2CCC(c3nc4ccc(Cl)cc4[nH]3)CC2)cc1	0.3%	17	3.0	-13	-0.9	-11
COc1ccc(CCNC(=O)c2cc(C)nc3c2c(C)nn3-c2ccccc2)cc1OC	1.2%	.	1.5	.	.	9
COc1ccc(C)cc1-n1nnc(C(=O)Nc2cccc(SC)c2)c1C	-0.5%	.	-0.8	.	.	10
C=CCn1c(O)c(C=Nc2ccccc2)sc1=S	6.0%	-4	2.2	-3	-4.1	-10
Nc1cccc(-c2cc(-c3ccccc3)nc(-c3cccc(N)c3)n2)c1	1.0%	-4	0.0	16	1.8	2
Cc1cc(C(=O)OCC(=O)Nc2nc(-c3ccccc3)cs2)c(C)o1	11%	0	0.4	20	4.0	-11
COc1ccc(N2Cc3ccccc3C2=O)cc1	-0.5%	1	-0.2	0	5.4	3
CC(=O)N1CC(C)Oc2ccc(S(=O)(=O)NC(CC(=O)O)c3ccccc3)cc21 (centres undefined)	-1.5%	0	-0.7	5	-0.2	4
CCOc1ccccc1C(=O)Nc1cccc(-c2nnc(-c3ccccc3)o2)c1	.	-3	0.3	0	0.7	15
COc1cc(NC(=O)CN2C(=O)c3ccccc3Sc3ccc(C(=O)N4CCOCC4)cc32)cc(OC)c1OC	1.4%	0	1.9	17	2.1	30
Cc1c(Nc2nc3ccccc3n3c(C)nnc23)cccc1C(=O)O	-1.2%	.	-0.2	.	.	-15
C=CCC[C@@H](CCCCC)OC(=O)/C=C/[C@H](O)[C@@H](O)C[C@@H](O)CC=C	4.6%	1	-0.6	-3	.	.
Nc1c(N2CCCCC2)c2ccccc2oc1=O	6.0%	-4	2.2	-14	0.3	21
CCC(=O)N1c2ccc(S(=O)(=O)CCC(=O)NCc3ccc4c(c3)OCO4)cc2CC1C (centres undefined)	-0.8%	6	0.9	3	-1.5	-2
c1coc(CNc2c3c(nc4ccccc24)CCC3)c1	-1.4%	-21	0.7	-6	-4.5	5

New compounds follow:
SMILES	PINK1 expr mod	CtBP-E1A inh	TRPML1 agonist	Six1-Eya2 inh	D2 agonist	TRPML1 inh
CCC(C)C(NC(=O)C1CCC(C)CC1)C(=O)NC(C(=O)OC)C(C)C (centres undefined)	4.1%	13	-0.3	0	-0.9	9
O=C(NCC1CCCO1)c1nc2c(nnn2Cc2ccc(F)cc2)c(=O)[nH]1 (centres undefined)	-3.7%[38.3 µM]	-4	0.3	1	1.0	2
c1ccc2oc(-c3csc(N4CCOCC4)n3)cc2c1	5.8%	-5	-1.4	-11	-0.8	-9
CN1C(=O)c2cccc(NC(=O)C3CCCCC3)c2C1=O	5.2%	6	-1.1	1	-1.2	5
CC1=NN(C(=O)c2ccccc2-n2cccc2)C(O)(C(F)(F)F)C1 (centres undefined)	2.9%	-2	-0.5	0	-2.2	4
Cc1ccc(NC(=O)c2ccc(NCC3CCCO3)c([N+](=O)[O-])c2)cc1Cl (centres undefined)	?	2	-0.4	3	-1.2	-10
CC1CN(C2=NC(=O)/C(=C/c3ccncc3)S2)CC(C)O1 (centres undefined)	-0.1%	0	-0.7	-7	-3.8	2
CCn1cc(CCC(=O)NCCc2ccccc2)c2ccccc21	5.1%	-1	0.8	-9	-7.2	-13
Cc1sc2nc(COC(=O)CNC(=O)c3ccc(C(C)(C)C)cc3)[nH]c(=O)c2c1C	1.8%	-5	-0.7	-1	0.7	9
COc1ccc(F)cc1-c1cc(C(=O)Nc2ccc(C)c(NS(C)(=O)=O)c2)[nH]n1	-1.4%	-8	-0.3	-5	8.7	.
CCSc1ncc(Cl)c(C(=O)Nc2ccccc2F)n1	2.0%	4	0.7	-1	0.9	17
O=C(Nc1cccc(O)c1)c1cc(S(=O)(=O)N2CCCC2)ccc1Cl	-1.1%	8	1.7	0	-1.0	-20
CC(=O)C1C(c2ccc(C)cc2)c2c(n[nH]c2C)CC1(C)O (centres undefined)	-0.9%	3	-0.3	-1	0.2	8
CC(C)c1ccc(CN2CCC2(C)C(=O)Nc2cccc(Oc3ccccc3)c2)cc1 (centres undefined)	5.1%	8	0.6	14	-4.1	.
CCCCN(CCCNC(=O)C1CCN(S(=O)(=O)CC)CC1)c1ccccc1	2.0%[38.3 µM]	3	1.2	-10	1.5	19
Cc1ccc(O)c(C(=O)c2cnc3c(c2)c(-c2ccc(F)cc2)c(C#N)c(=O)n3C)c1	-0.9%	0	1.9	?	6.6	-14
CCNc1nc(-c2cc(C)n(Cc3ccco3)c2C)cs1	?	2	0.3	-7	-0.5	7
CC1CCN(S(=O)(=O)c2ccc3c(ccn3CC(=O)NCc3ccc(N(C)C)cc3)c2)CC1	3.5%	.	2.0	.	.	10
CCOc1cccc(CC(=O)N2CCc3c([nH]c4ccccc34)C2c2ccccc2)c1OCC (centres undefined)	0.5%	.	0.5	.	.	18
COc1ccc(OC)c(-c2nc(C(=O)NCCCN3CCOCC3)cc3c2[nH]c2ccccc23)c1	2.8%	-25	.	-15	-1.5	.
Cc1ccccc1C(=O)Nc1nc2nc(-c3ccccc3)cc(=O)n2[nH]1	1.0%	.	0.7	.	.	-12
CC1C(=O)N(Cc2cn(Cc3ccco3)nn2)CCS(=O)(=O)N1Cc1ccc(-c2ccc(F)cc2)cc1 (centres undefined)	0.5%	4	0.0	2	-5.0	22
COc1ccc(-c2cc(NC(C)=O)c3ncc(-c4ccc(OC)c(OC)c4)n3c2)cc1OC	5.4%	-3	-0.3	-23	4.2	.
CCOc1ccc(OCCOCCN2CCc3ccccc3C2)cc1	.	-6	0.4	-5	-0.4	20
COC(=O)c1ccc(COc2cccc(OC)c2)o1	-1.8%[38.3 µM]	23	1.3	10	2.0	-4

An excerpt from above in order of length of the SMILES, rising.
SMILES	PINK1 expr mod	CtBP-E1A inh	TRPML1 agonist	Six1-Eya2 inh	D2 agonist	TRPML1 inh
O=C(N/N=C/c1ccoc1)c1cc(O)cc(O)c1	4.1%	-18	0.9	?	-1.6	30
c1ccc2oc(-c3csc(N4CCOCC4)n3)cc2c1	5.8%	-5	-1.4	-11	-0.8	-9
COc1cccc(NC(=O)c2cccc(N3C(=O)C4C5C=CC(C5)C4C3=O)c2)c1 (centres undefined)	2.3%	0	0.7	3	?	15

Taken from above.
In CtBP-E1A inh, CCOc1ccc(OCCOCCN2CCc3ccccc3C2)cc1 reads -6
In CtBP-E1A inh, CC1CN(C2=NC(=O)/C(=C/c3ccncc3)S2)CC(C)O1 (centres undefined) reads 0
In PINK1 expr mod, O=C(Nc1cccc(O)c1)c1cc(S(=O)(=O)N2CCCC2)ccc1Cl reads -1.1%

More compounds follow:
SMILES	PINK1 expr mod	CtBP-E1A inh	TRPML1 agonist	Six1-Eya2 inh	D2 agonist	TRPML1 inh
COCCNC(=O)C(c1cccs1)N(C(=O)Cn1nnc2ccccc21)c1ccc2c(c1)OCO2 (centres undefined)	-1.0%	3	-0.5	4	0.8	-4
CCOc1ccccc1C(=O)OCC(=O)Nc1cccc(S(=O)(=O)N2CCCC2)c1	-0.3%	-3	1.5	-3	-1.4	-9
Cc1c(Br)c([N+](=O)[O-])nn1CC(=O)NCc1ccco1	-2.6%	-12	0.8	5	-4.4	22
CCn1cc(C2=NC(C)(C)CO2)c2ccccc21	18%[38.3 µM]	3	0.8	6	0.8	-5
COc1ccccc1N1CCN(C(=O)C(=O)c2cn(CC(=O)N3CCCC3)c3ccccc23)CC1	5.9%	-1	0.1	-9	-0.1	0
CNC(=O)c1cc2ccc(OC)cc2oc1=O	4.3%	3	1.1	-3	-2.5	1
CN(C)C(CNC(=O)c1cccs1)c1ccco1 (centres undefined)	3.0%	.	0.5	5	-4.9	-3
O=C(O)c1cccc(Cn2c(Cl)c(/C=N/NC(=O)c3cc4ccccc4cc3O)sc2=O)c1	0.1%	.	-0.9	-27	-4.8	9
COc1ccc(C(=O)OCC(=O)NC(=O)NCc2ccccc2)cc1[N+](=O)[O-]	1.1%	-3	2.5	-6	-1.3	-3
Cc1ccc(S(=O)(=O)c2c(C)cc(C)nc2N2CCCCC2)cc1	12%	-13	-1.3	-20	-5.4	36
Cc1ccc(NC(=O)CSc2nc3n[nH]c(C)c3c(=N)n2-c2cccc(C)c2)cc1	1.2%	.	3.8	.	.	22
CCCCNC(=O)C1CCN(Cc2ccc(OCc3ccccc3)cc2)CC1	0.9%	-6	0.7	-1	2.0	2
O=C(Nc1cccc(-c2cnc3ccccc3n2)c1)c1cccc(NC(=O)c2ccco2)c1	-0.6%[38.3 µM]	-25	0.8	-23	-2.1	-12
COC(=O)c1ccc(NC(=O)C(=O)NCCc2csc(-c3ccc(C(F)(F)F)cc3)n2)cc1	1.3%	.	3.3	.	.	-7
COc1ccc(Cl)cc1NC(=O)/C=C\C(=O)O	4.9%[38.3 µM]	7	4.4	1	-1.6	2
Cc1cccc(/C=N/NC(=O)Cn2nccc2C)n1	1.7%	0	0.2	-2	0.5	-3
Cc1ccc(C(=O)Nc2nc3ccccc3n2CCN2CCCC2)cc1	-2.3%	-13	0.8	-16	-2.2	-8
Cn1c(=O)c2c(nc(NCCc3ccccc3)n2Cc2ccc(Cl)c(Cl)c2)n(C)c1=O	0.3%	.	-1.1	.	.	-3

Screening results (PubChem)

An unsorted share of the library; 1% or so of the library scored in one or more.
